# Source: PubChem BioAssay
# FGF22 binding = FGF22 (human) thermal shift binding; Q9HCT0; recombinant FGF22 thermal shift, SYPRO orange fluorescence; percent of sucrose octasulfate shift, DMSO zero; calls only at 9.99 µM; actives 1.5% (n = 340,000);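 active means melting point raised past a set limit in the mean and every replicate; three in four hits are not shown here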
# Target sequence (Q9HCT0 whole entry, looked up): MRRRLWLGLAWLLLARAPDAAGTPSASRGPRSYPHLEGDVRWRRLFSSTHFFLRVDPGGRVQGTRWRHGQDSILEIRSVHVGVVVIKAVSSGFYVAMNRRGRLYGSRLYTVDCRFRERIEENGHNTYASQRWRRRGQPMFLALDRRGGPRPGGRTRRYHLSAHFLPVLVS
# Ecoli rRNA inh = inhibitors of bacterial rRNA selective over humanized ribosomes; E. coli WT GFP vs humanized-ribosome RFP mutants, fluorescence, 24 h; active compounds read low; DMSO median 0, no signal -100; actives 1.6% (n = 350,000); AID 720706; GFP signal change (wild-type ribosome), % (test concentration not listed);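 active means significant combined selectivity score with lowered wild-type GFP, culture density cut under 30%, mutant RFP and density less affected; inactive means any of these conditions unmet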; further: one replicate is shown; some compounds called inactive have numbers as strong as hits
# Ecoli rRNA inh OD600 = further read-out of Ecoli rRNA inh, marked with its call; OD600 change, %; measured here: OD600 growth;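 optical density of the mix in the first replicate; 0 = DMSO median and -100 = no signal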
# Ecoli rRNA inh RFP = further read-out of Ecoli rRNA inh, marked with its call; RFP signal change, %; measured here: RFP humanized mutant strains;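 first replicate; 0 = DMSO median and -100 = no signal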
# * marks the source's active call; other numbers are inactive results; i = inactive; + = active, no number. Only part of the results is shown (hit frequency here may not be typical).
FGF22 binding,Ecoli rRNA inh,Ecoli rRNA inh OD600,Ecoli rRNA inh RFP,compound
+,0.2,-9.9,1.5,C[C@H](CO)N1C[C@H](C)[C@H](CN(C)CC2CCCCC2)Oc2c(NC(=O)Nc3ccc4c(c3)OCO4)cccc2C1=O
i,1.9,-0.1,-1.4,CS(=O)(=O)Nc1ccc2c(c1)[C@@H]1C[C@@H](CC(=O)NC3CCCCC3)O[C@H](CO)[C@@H]1O2
i,-5.4,-6.2,-2.0,O=C(NC1CCC1)[C@@H]1[C@@H](CO)[C@@H]2Cn3c(cccc3=O)[C@H]1N2CC1CCCCC1
i,-0.4,-6.3,-1.0,CCS(=O)(=O)Nc1ccc2c(c1)C(=O)N(C)[C@H]1CC[C@H](CC(=O)NC3CCCCC3)O[C@@H]1CO2
i,2.9,4.4,2.0,Cc1ccc(S(=O)(=O)Nc2ccc3c(c2)CC(=O)N([C@H](C)CO)C[C@@H](C)[C@H](CN(C)S(=O)(=O)c2c(C)noc2C)O3)cc1
i,5.1,0.7,-2.5,COC(=O)C[C@H]1C[C@H]2c3cc(NC(=O)Nc4ccccc4)ccc3O[C@H]2[C@@H](CO)O1
i,-0.2,-1.4,2.6,CO[C@@H]1CN(C)C(=O)c2ccc(NC(=O)c3ccccc3F)cc2OC[C@H](C)NC[C@H]1C
i,-2.0,-0.1,1.7,C[C@@H]1CN([C@@H](C)CO)C(=O)c2cccc(NS(=O)(=O)c3ccccc3)c2O[C@@H]1CN(C)C(=O)Nc1ccccc1
i,-5.8,-8.9,3.7,COc1cccc(S(=O)(=O)N[C@@H]2CC[C@@H](CCn3cc(-c4ccccc4OC)nn3)O[C@@H]2CO)c1
i,-7.3,-0.9,-1.0,Cc1ccccc1S(=O)(=O)NCC[C@H]1CC[C@@H](NC(=O)C2CCCCC2)[C@@H](CO)O1
i,6.6,8.1,-3.8,COCC(=O)N(C)C[C@@H]1Oc2ncc(C#CC3(O)CCCC3)cc2C(=O)N([C@@H](C)CO)C[C@H]1C
i,-0.9,-1.0,-1.0,C[C@@H]1CN([C@H](C)CO)C(=O)c2cc(C#CC3(O)CCCC3)cnc2O[C@H]1CN(C)S(=O)(=O)c1ccc(F)cc1
i,-3.9,-3.1,1.6,CO[C@H]1CN(C)C(=O)c2ccc(NC(=O)Nc3cccc(F)c3)cc2OC[C@H](C)N(C(C)=O)C[C@H]1C
i,2.0,2.5,-0.7,N#Cc1ccc(-c2ccc3c(c2)[C@@H]2[C@@H](CCN2C(=O)CN2CCOCC2)[C@@H](CO)N3)cc1
i,-0.1,2.1,-2.7,O=C(N[C@@H]1CC[C@H](CC(=O)N2CCc3ccccc3C2)O[C@@H]1CO)C1CCC1
i,2.1,13.2,1.6,O=C(C1CCOCC1)N1[C@H](CO)[C@@H](c2ccccc2)C12CN(Cc1cccc(Cl)c1)C2
i,-6.3,-9.3,3.2,O=C(Nc1ccc2c(c1)[C@@H]1C[C@H](CC(=O)N3CCc4ccccc4C3)O[C@@H](CO)[C@@H]1O2)Nc1ccccc1F
i,-3.2,-3.3,-0.4,COc1ccc(NC(=O)N[C@@H]2CC[C@@H](CCn3cc(C4(O)CCCC4)nn3)O[C@@H]2CO)cc1
i,3.3,-0.1,-3.6,CO[C@@H]1CN(C)C(=O)c2cc(NS(C)(=O)=O)ccc2OC[C@@H](C)N(CC2CC2)C[C@@H]1C
i,-1.6,-2.2,-0.4,CC=Cc1ccc2n(c1=O)C[C@H]1[C@H](CO)[C@@H](C(=O)N[C@@H](C)c3ccccc3)N(C(=O)c3ccccn3)[C@@H]21 (mixture of isomers)
i,0.4,8.3,1.1,COc1ccc2c3c([nH]c2c1)[C@@H](CO)N(C(C)=O)CC31CN(C(=O)Nc2ccc(F)cc2)C1
i,-55.1,-73.8,-12.8,O=C(Cc1ccccc1)N1CC(=O)N2[C@H](C1)[C@@H](c1ccc(-c3ccc(F)cc3)cc1)[C@@H]2CO
i,-2.6,2.3,1.1,COc1ccc(-c2ccccc2[C@H]2[C@@H](C#N)N(C(=O)C3CCC3)[C@@H]2CO)cc1
i,2.8,1.7,0.8,C[C@H]1CCCCO[C@H](CN(C)S(=O)(=O)c2cn(C)cn2)[C@@H](C)CN([C@@H](C)CO)C(=O)c2cc(NC(=O)C3CCCCC3)ccc2O1
i,-6.8,-10.4,1.8,CCC(=O)Nc1ccc2c(c1)OC[C@H](C)N(Cc1ccccc1F)C[C@H](C)[C@@H](OC)CN(C)C2=O
i,4.9,2.9,1.1,O=C(C[C@H]1C=C[C@@H](NC(=O)C2CC2)[C@@H](CO)O1)NCC1CC1
i,2.4,2.6,4.3,COCCNC(=O)C[C@@H]1CC[C@H]2[C@H](COc3ccc(NC(=O)Nc4ccccc4)cc3C(=O)N2C)O1
i,0.9,9.4,-1.8,COc1ccc(NC(=O)Nc2ccc3c(c2)C(=O)N([C@@H](C)CO)C[C@@H](C)[C@@H](CN(C)C(=O)Nc2cccc4ccccc24)OCCCC[C@@H](C)O3)cc1
i,-0.1,-3.2,0.6,CN1CCN(C(=O)C[C@@H]2C=C[C@H](NC(=O)Cc3ccccn3)[C@H](CO)O2)CC1
i,1.9,-3.7,5.3,CC(=O)N(CC1CCC1)C[C@@H]1N[C@@H](CO)[C@H]1c1ccc(C2=CCCC2)cc1
i,-2.2,-7.6,-0.9,C[C@H](CO)N1C[C@H](C)[C@H](CN(C)C(=O)CC2CC2)Oc2cc(C#CC3CC3)ccc2S1(=O)=O
i,3.8,6.0,-3.1,O=C(NCC(F)(F)F)[C@@H]1[C@@H](CO)[C@@H]2Cn3c(cccc3=O)[C@H]1N2C(=O)C1CC1

# Structures above marked active in FGF22 binding.
FGF22 binding,Ecoli rRNA inh,Ecoli rRNA inh OD600,Ecoli rRNA inh RFP,compound
+,0.2,-9.9,1.5,C[C@H](CO)N1C[C@H](C)[C@H](CN(C)CC2CCCCC2)Oc2c(NC(=O)Nc3ccc4c(c3)OCO4)cccc2C1=O

# New compounds follow.
FGF22 binding,Ecoli rRNA inh,Ecoli rRNA inh OD600,Ecoli rRNA inh RFP,compound
i,-2.6,-18.6,-1.1,CCc1cnc(N2[C@H](C#N)[C@H](c3ccc(C#CCC4CCCC4)cc3)[C@H]2CO)s1
i,2.6,6.0,-2.3,CCNC(=O)C[C@H]1CC[C@@H]2[C@@H](COc3ccc(NC(C)=O)cc3C(=O)N2C)O1
i,-8.3,-23.1,5.1,C[C@@H]1CN([C@H](C)CO)C(=O)c2cc(C3=CCCC3)cnc2O[C@H]1CN(C)C(=O)Nc1ccc(C(F)(F)F)cc1
i,8.4,3.8,0.7,O=C(C[C@H]1C[C@@H]2c3cc(NC(=O)C4CCOCC4)ccc3O[C@@H]2[C@H](CO)O1)NCc1ccc(Oc2ccccc2)cc1
i,1.9,1.9,-3.2,CNC(=O)C[C@H]1CC[C@H]2[C@H](COc3ccc(NC(=O)Nc4ccc(F)cc4)cc3C(=O)N2C)O1
i,-3.1,-12.4,2.9,COc1ccc(NC(=O)Nc2ccc3c(c2)CC(=O)N([C@H](C)CO)C[C@@H](C)[C@@H](CN(C)S(=O)(=O)c2ccccc2)O3)cc1
i,-2.3,-7.4,-1.3,C[C@@H]1CN([C@@H](C)CO)C(=O)c2cc(NC(=O)Cn3cnnn3)ccc2O[C@@H]1CN(C)Cc1ccc2c(c1)OCO2
i,-3.4,-7.5,-0.5,COc1cccc(-c2ccc3c(c2)O[C@H](CN(C)Cc2cncnc2)[C@H](C)CN([C@@H](C)CO)S3(=O)=O)c1
i,2.7,9.6,1.5,CC(C)NC(=O)N[C@@H]1C=C[C@@H](CC(=O)NCc2ccc(Oc3ccccc3)cc2)O[C@@H]1CO
i,-1.2,6.0,3.8,COCC(=O)N(C)C[C@H]1Oc2cc(C#Cc3ccccc3)ccc2S(=O)(=O)N([C@H](C)CO)C[C@@H]1C
i,0.7,3.7,-1.3,CO[C@H]1CN(C)C(=O)c2ccc(NS(C)(=O)=O)cc2OC[C@@H](C)N(C(=O)CC2CC2)C[C@@H]1C
i,-0.7,1.7,-3.4,C[C@@H]1CN([C@H](C)CO)C(=O)c2cc(C3=CCCCC3)cnc2O[C@H]1CN(C)C(=O)Cc1ccncc1
i,0.1,6.0,-3.3,COC(=O)C[C@H]1C[C@H]2c3cc(NC(=O)CN(C)C)ccc3O[C@H]2[C@H](CO)O1
i,0.8,9.9,2.9,CO[C@H]1CN(C)C(=O)c2ccc(NC(=O)C3CCCC3)cc2OC[C@@H](C)NC[C@H]1C
i,1.1,-1.2,-2.5,C[C@@H]1CN([C@H](C)CO)C(=O)CCCn2cc(nn2)CO[C@@H]1CN(C)C(=O)Nc1ccc(F)cc1
i,2.1,19.2,0.0,O=C(O)C[C@H]1C[C@@H]2c3cc(NC(=O)Nc4ccccc4F)ccc3O[C@@H]2[C@H](CO)O1
i,1.6,-1.7,-1.0,C[C@@H]1CN([C@H](C)CO)C(=O)CCCn2cc(nn2)CO[C@@H]1CN(C)S(=O)(=O)c1cccc(C#N)c1
i,-6.2,-1.8,-5.5,C[C@@H]1CN([C@H](C)CO)S(=O)(=O)c2ccc(C#CCN(C)C)cc2O[C@@H]1CN(C)C(=O)c1ccccc1F
i,2.9,9.1,-3.1,CO[C@H]1CC[C@@H]2CCN(C)C(=O)CCCN(C)C(=O)c3cc(C#N)ccc3OC[C@@H]1O2
i,1.4,11.3,-0.3,Cc1noc(C)c1NC(=O)Nc1ccc2c(c1)CC(=O)N([C@H](C)CO)C[C@@H](C)[C@H](CN(C)S(=O)(=O)c1ccc(F)cc1)O2
i,-11.4,-7.2,-2.4,COc1ccc(S(=O)(=O)N[C@H]2CC[C@@H](CCn3cc(-c4cccc(F)c4)nn3)O[C@H]2CO)cc1
i,-2.1,-11.2,5.2,N#C[C@H]1[C@@H](c2ccc(-c3ccccc3F)cc2)[C@@H](CO)N1C(=O)C1CCC1
i,-6.0,3.4,0.4,C[C@H]1CN([C@@H](C)CO)C(=O)c2cc(NC(=O)NC3CCCCC3)ccc2O[C@@H]1CN(C)S(=O)(=O)c1ccc(F)cc1
i,0.6,0.5,-0.2,COCCNC[C@@H]1[C@H](c2ccccc2)[C@H](CO)N1c1nc(C)c(C)s1
i,1.1,0.2,-1.1,Cc1ccc(S(=O)(=O)N(C)C[C@H]2Oc3ccc(NC(=O)CCCCCC(=O)Nc4ccccc4N)cc3CC(=O)N([C@@H](C)CO)C[C@@H]2C)cc1
i,2.2,5.6,4.5,Cc1ccccc1S(=O)(=O)N1CCCCN2[C@H](C1)[C@H](c1ccc(-c3cncnc3)cc1)[C@@H]2CO
i,-1.7,-4.7,-2.5,C[C@@H]1CN([C@H](C)CO)C(=O)c2cc(-c3cccnc3)cnc2O[C@H]1CN(C)C(=O)Nc1ccccc1
i,-2.1,-1.5,2.1,C[C@H]1CN([C@@H](C)CO)C(=O)c2cccc(NC(=O)c3ccc(-c4nccs4)cc3)c2O[C@H]1CN(C)Cc1ccc(C(=O)Nc2ccccc2N)cc1
i,3.3,4.2,0.1,C/C=C/c1ccc([C@H]2[C@@H](CN(C)C(=O)CC)N(C(=O)NC(C)C)[C@H]2CO)cc1
+,6.1,4.6,-2.4,COCC(=O)Nc1ccc2c(c1)[C@H]1C[C@@H](CC(=O)NCCN3CCCCC3)O[C@H](CO)[C@H]1O2
i,-0.3,2.5,-0.8,C[C@H](NC(=O)N(C)C[C@H]1OCc2ccccc2-c2ccccc2C(=O)N([C@@H](C)CO)C[C@H]1C)c1ccccc1
i,-0.3,-11.0,6.9,C[C@H]1CN([C@@H](C)CO)S(=O)(=O)c2ccc(C#Cc3ccccc3)cc2O[C@H]1CN(C)C(=O)C1CC1

# An excerpt from above in order of their number in Ecoli rRNA inh, lowest first:
SMILES | Ecoli rRNA inh
C[C@H]1CN([C@@H](C)CO)C(=O)c2cc(NC(=O)NC3CCCCC3)ccc2O[C@@H]1CN(C)S(=O)(=O)c1ccc(F)cc1 | -6.0
COc1ccc(NC(=O)Nc2ccc3c(c2)CC(=O)N([C@H](C)CO)C[C@@H](C)[C@@H](CN(C)S(=O)(=O)c2ccccc2)O3)cc1 | -3.1
C[C@H](CO)N1C[C@H](C)[C@H](CN(C)C(=O)CC2CC2)Oc2cc(C#CC3CC3)ccc2S1(=O)=O | -2.2
CO[C@@H]1CN(C)C(=O)c2ccc(NC(=O)c3ccccc3F)cc2OC[C@H](C)NC[C@H]1C | -0.2
C[C@@H]1CN([C@H](C)CO)C(=O)CCCn2cc(nn2)CO[C@@H]1CN(C)C(=O)Nc1ccc(F)cc1 | 1.1

# Other results:
FGF22 binding,Ecoli rRNA inh,Ecoli rRNA inh OD600,Ecoli rRNA inh RFP,compound
i,0.7,11.9,-2.9,CCCNC(=O)N1C[C@@H](C)[C@H](OC)CN(C)C(=O)c2ccc(NC(=O)CC)cc2OC[C@@H]1C
i,-5.0,-0.4,-0.9,COc1cccc(S(=O)(=O)N[C@@H]2CC[C@H](CC(=O)NCc3ccc(Cl)cc3)O[C@H]2CO)c1
i,-3.7,1.0,-0.8,Cc1noc(C)c1NC(=O)N(C)C[C@@H]1Oc2c(NC(=O)Nc3ccc4c(c3)OCO4)cccc2C(=O)N([C@@H](C)CO)C[C@H]1C
i,-2.1,-2.1,-0.3,COc1ccc(S(=O)(=O)N[C@H]2C=C[C@@H](CC(=O)NCCc3ccncc3)O[C@H]2CO)cc1
+,0.2,-3.7,-1.9,C[C@H]1CN([C@@H](C)CO)C(=O)c2cc(C3=CCCC3)cnc2O[C@H]1CN(C)C(=O)CN(C)C
i,-0.5,3.8,-2.3,C[C@H](CO)N1C[C@H](C)[C@@H](CN(C)Cc2ccncc2)Oc2ccc(NC(=O)c3ccncc3)cc2CC1=O
i,-1.3,-6.8,1.0,C[C@@H]1CN([C@H](C)CO)C(=O)c2cccc(NC(=O)Nc3cccc4ccccc34)c2O[C@H]1CN(C)C(=O)Nc1ccccc1
